RGS16-Gao = regulators of human RGS16-Galphao interaction. bead-based flow cytometry RGS16-Galphao binding, fluorescence; actives lie on both sides. binding response (% of control), % at 10 µM. 220,000 compounds, 0.38% hits;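 active means below 25% or above 175%, edge rows of some plates excepted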;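 further: Galphao activated by GDP with aluminum fluoride before binding; 100% = wells without compound and 0% = beads without RGS; some results beyond the cut were filed as inactive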
HSV augment = increases HSV replication in cells. HSV replication augmentation in cells, fold increase. maximum fold increase. 220,000 compounds, 0.005% hits;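 active means peak rise of 1.5-fold or more in the series; tested in PC3 cells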;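 further: first round at 10 µM; read as green reporter fluorescence; hits show the peak of a series up to 25 µM; 1 = signal of infected wells without compound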
Insulin prom inh = TRM-6 insulin promoter activity inhibition; TRM-6 cells (human fetal islet line), insulin promoter-eGFP reporter, imaging; reporter expression induced with tamoxifen; inhibition, % at 2 µM; 130,000 compounds, 0.9% hits; AID 1273;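 active means inhibition above the mean plus 3 SD, with well images judged a real hit on visual review, cut at about 60% in these data, passing the limit was not always enough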
PKD1 kinase inh = blocks activity of human protein kinase D1 | inhibition, %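 (about 10 µM by stock and volumes)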 | Q15139 | 200,000 compounds, 0.056% hits | PKD1 kinase fluorescence polarization assay;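 active means inhibition of 50% or more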;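 further: controls were vehicle for no effect and a reference inhibitor for full effect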
Target sequence (Q15139 whole entry, looked up): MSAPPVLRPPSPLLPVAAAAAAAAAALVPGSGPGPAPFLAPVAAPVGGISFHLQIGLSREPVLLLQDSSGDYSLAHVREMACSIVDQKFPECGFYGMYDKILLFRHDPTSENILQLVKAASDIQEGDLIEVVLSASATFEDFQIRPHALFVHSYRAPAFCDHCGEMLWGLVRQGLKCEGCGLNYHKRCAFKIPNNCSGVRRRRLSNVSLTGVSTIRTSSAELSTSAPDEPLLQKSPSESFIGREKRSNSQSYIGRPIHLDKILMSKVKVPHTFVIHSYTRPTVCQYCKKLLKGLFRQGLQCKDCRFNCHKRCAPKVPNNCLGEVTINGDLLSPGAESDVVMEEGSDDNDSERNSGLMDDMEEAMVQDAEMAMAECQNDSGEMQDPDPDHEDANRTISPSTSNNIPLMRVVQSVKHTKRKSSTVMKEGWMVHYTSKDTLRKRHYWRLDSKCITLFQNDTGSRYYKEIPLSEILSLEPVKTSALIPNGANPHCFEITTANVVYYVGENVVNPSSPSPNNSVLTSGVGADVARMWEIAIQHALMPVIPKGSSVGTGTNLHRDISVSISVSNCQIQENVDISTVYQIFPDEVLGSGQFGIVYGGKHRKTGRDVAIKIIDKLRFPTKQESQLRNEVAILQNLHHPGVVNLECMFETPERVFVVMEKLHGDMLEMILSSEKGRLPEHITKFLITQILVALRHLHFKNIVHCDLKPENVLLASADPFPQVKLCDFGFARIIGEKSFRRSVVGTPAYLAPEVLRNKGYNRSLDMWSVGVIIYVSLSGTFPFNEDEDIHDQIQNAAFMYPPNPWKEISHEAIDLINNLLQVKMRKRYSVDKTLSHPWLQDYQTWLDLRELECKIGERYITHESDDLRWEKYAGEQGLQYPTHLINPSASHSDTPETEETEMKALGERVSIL
GALR2 agonist = agonists of human galanin receptor 2 (GALR2); O43603; GALR2-expressing cells, agonist activation read-out; activation, %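 (tested at 5 µM)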; 140,000 compounds, 0.48% hits;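 active means above mean plus 3 SD of all compounds, about 5% in these data, not always enough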;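 further: 0% = vehicle buffer wells and 100% = reference agonist at full effect; tested in CHO reporter cells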
Insulin prom inh cell count = recorded beside Insulin prom inh, whose call it bears; normalized cell count, %; measured here: cell count, toxicity; reference of the scale not given here;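 cells exposed to compound for 48 h; stained nuclei by imaging scaled within each plate; lower means fewer cells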
HSV augment primary fold = recorded beside HSV augment, whose call it bears; fold increase; compound at 10 µM; measured here: primary screen fold increase 10 uM; tested in PC3 cells;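 GFP signal in the first replicate; 1 = infected wells without compound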
* hit, by the source's call; i = inactive; nt = no result given.

SMILES	RGS16-Gao	HSV augment	HSV augment primary fold	Insulin prom inh	Insulin prom inh cell count	PKD1 kinase inh	GALR2 agonist
Nc1nc(-c2ccc3c(c2)CCC(=O)N3)cs1	96	i	1	nt	nt	-4	nt
CCS(=O)(=O)N1Cc2ccccc2CC1C(=O)Nc1nnc(C2CC2)s1 (configuration not stated)	97	i	0.94	17	92	-2	nt
Cc1noc(C)c1C(=O)OCC(=O)NC(c1ccccc1)c1ccccc1	102	i	0.97	21	120	-7	-3.2
Cc1ccc(CNC(=O)CCC(=O)c2cccs2)cc1	129	i	0.84	nt	nt	-3	-2.0
O=C(/C=C/c1ccccc1)NC(=S)NNC(=O)Cc1cccs1	100	i	0.94	69	176	-2	-2.0
CCOC(=O)c1nc(C)sc1-c1ccnn1S(=O)(=O)c1ccc(Cl)cc1Cl	111	i	0.74	nt	nt	nt	nt
CCc1ccc2[nH]c3nc(SCc4nnc(-c5ccc(C)cc5)o4)nnc3c2c1	110	i	0.95	24	64	-3	-0.2
O=C(NCCc1ccc(Cl)cc1)C1CCC(CNc2c(N3CCCCC3)c(=O)c2=O)CC1 (configuration not stated)	110	i	1.1	10	68	-6	-0.6
CCOC(=O)c1ccc(S(=O)(=O)Nc2nc3cc(S(=O)(=O)NC4=NCCCCC4)ccc3s2)cc1	96	i	0.95	nt	nt	-1	nt
Cc1ccc(NC(=O)Cn2sc3nc(C)cc(C)c3c2=O)c(Cl)c1	16*	i	0.95	nt	nt	nt	nt
CN(NS(=O)(=O)c1ccc(Cl)cc1)c1ncc(C(F)(F)F)cc1Cl	99	i	0.88	nt	nt	0	nt
Cc1ccc(-c2nn3c(C)nnc3s2)cc1NC(=O)c1ccc(-c2cccc(Cl)c2)o1	96	i	1.1	-24	47	1	-0.3
Cc1cc(C(=O)N2CCN(C/C=C/c3ccccc3)CC2)cs1	106	i	0.86	8	110	-1	-1.1
Cn1cc(S(=O)(=O)N2CCN(C(=O)c3ccco3)CC2)c(=O)n(C)c1=O	81	i	0.94	nt	nt	-10	-4.0
CC(=O)c1c(C)[nH]c(C(=O)OCc2c(F)cccc2Cl)c1C	103	i	0.96	nt	nt	-3	nt
COC(=O)C(C)(C(=O)OC)c1ccc(C(F)(F)F)cc1[N+](=O)[O-]	103	i	0.99	nt	nt	-5	nt
CC(C)OC(=O)c1sc2nc(-c3ccccc3)ccc2c1N	114	i	0.89	10	109	-7	2.6
Cc1csc(NC(=O)C2CCCN(S(=O)(=O)c3ccc4c(c3)oc(=O)n4C)C2)n1 (configuration not stated)	110	i	1.1	nt	nt	-2	-3.8
COc1ccc(OC)c(-n2c(-c3ccc(O)cc3O)n[nH]c2=S)c1	87	i	1	nt	nt	nt	nt
O=C(Nc1ccc(F)cc1)N1CCOCC1	105	i	1.2	21	102	-4	-0.7
Cc1occc1-c1nnc(SCC(=O)N2CCCc3ccccc32)n1Cc1ccco1	103	i	1	nt	nt	1	-1.0
COc1ccccc1N1CCN(C(=O)c2ccccc2Oc2ccccc2)CC1	104	i	0.93	nt	nt	-9	0.3
CCN(CC)S(=O)(=O)c1ccc(NC(=O)c2cccs2)cc1	108	i	0.82	49	96	1	nt
CCC(=O)Oc1ccc(C(=O)Nc2c[nH]c(=O)[nH]c2=O)cc1	104	i	0.97	18	72	-6	-0.5
O=C(COC(=O)c1cc(NS(=O)(=O)c2cccs2)ccc1O)Nc1cc(Cl)ccc1Cl	105	i	0.96	nt	nt	-10	nt
O=C(O)c1cccc(N2C(=O)CCC2=O)c1	101	i	0.83	nt	nt	nt	nt
Cc1cc(C)n(-c2nc(C)nc3sc4c(c23)CCC(C)C4)n1 (configuration not stated)	110	i	1.3	-1	96	-1	-0.3
CSc1nsc(SC)c1C(=O)O	109	i	0.9	55	170	9	nt
COc1ccccc1NC(=O)CN(Cc1ccco1)C(=O)c1ccc(Cl)nc1	95	i	1.1	nt	nt	-5	nt
COc1cc(C(=O)Nc2nc(-c3cc(C)ccc3C)c(C)s2)ccc1OCC(=O)Nc1ccc(F)cc1	72	i	1	nt	nt	-5	-1.1
COc1cc2c(C#N)c(N3CCCCC3)nc(N)c2c(N)n1	106	i	0.96	-42	54	1	0.9
COCc1cc(C)nc(OCC(=O)N/N=C/c2ccc(C)cc2)c1C#N	112	i	0.84	nt	nt	nt	nt
Cc1ccc(O)c(C(CC(=O)NCc2cccnc2)c2ccccc2)c1 (configuration not stated)	99	i	0.99	nt	nt	1	nt
Cc1cc(C)nc(CC(N)=O)n1	99	i	0.97	11	97	1	-0.3
C#CCSc1nc2ccccc2n1C(=O)c1ccc(S(=O)(=O)N2CCCCC2)cc1	102	i	1.1	76*	77*	-4	-0.4
Cc1cc(C)c(C#N)c(SCc2ccccc2C)n1	94	i	1	17	100	-15	-2.5
COc1cc(/C=N/Nc2ccc(F)cc2F)cc(OC)c1OC	95	i	0.99	nt	nt	0	-1.2
CCNc1c(N)c(=O)oc2ccccc12	20	i	0.93	nt	nt	1	-3.0
c1ccc(N2CCN(c3ncccn3)CC2)cc1	101	i	1	-15	135	-1	-1.9
CC1CN(C(=O)C(Sc2ccccc2)c2ccccc2)CC(C)O1 (configuration not stated)	101	i	1	nt	nt	-5	-1.7
COC(=O)c1[nH]nc(C(=O)OC(C)(C)C)c1-c1ccccc1	110	i	1.1	8	138	-3	0.2
CC1(C)Cc2c(c(-c3ccccc3)[nH]c(=O)c2C#N)CO1	102	i	0.99	nt	nt	7	-1.4
O=C1c2ccccc2C(=O)N1Cc1ccc2c(c1)OCO2	96	i	0.98	69	118	-4	-1.1
COC(=O)c1ccc(C(=O)OC)c(NC(=O)CS(=O)(=O)Cc2ccccc2)c1	98	i	1	-29	141	-5	-1.2
COc1cccc(-n2c(SCC(=O)Nc3sc4c(c3C(N)=O)CCC4)nc3ccccc3c2=O)c1	108	i	0.84	nt	nt	0	-2.2
CC(=O)Nc1ccc(S(=O)(=O)NCc2ccc(C)cc2)cc1	112	i	1	11	67	-8	-1.7
CCOC(=O)N1CCC(N(CCN(C)C)C(=S)Nc2ccccc2C)CC1	106	i	0.97	-3	105	3	-0.4
COCCNCC(=O)N1CCCCCC1	107	i	0.98	0	116	-10	nt
CNS(=O)(=O)c1cnccc1N1CCN(c2cccc(C(F)(F)F)c2)CC1	101	i	0.94	-53	82	-3	-1.6
CS(=O)(=O)Nc1ccc(Br)cc1C(=O)c1ccccc1	104	i	0.77	-52	90	-1	-0.8

One compound at a time, as listed above. Screens in order: RGS16-Gao	HSV augment	HSV augment primary fold	Insulin prom inh	Insulin prom inh cell count	PKD1 kinase inh	GALR2 agonist
Entry for CNS(=O)(=O)c1cnccc1N1CCN(c2cccc(C(F)(F)F)c2)CC1 : 101	i	0.94	-53	82	-3	-1.6
Entry for CC(=O)Nc1ccc(S(=O)(=O)NCc2ccc(C)cc2)cc1 : 112	i	1	11	67	-8	-1.7
Entry for COC(=O)c1ccc(C(=O)OC)c(NC(=O)CS(=O)(=O)Cc2ccccc2)c1 : 98	i	1	-29	141	-5	-1.2
Entry for COCCNCC(=O)N1CCCCCC1 : 107	i	0.98	0	116	-10	nt
Entry for O=C1c2ccccc2C(=O)N1Cc1ccc2c(c1)OCO2 : 96	i	0.98	69	118	-4	-1.1

Next part.
SMILES	RGS16-Gao	HSV augment	HSV augment primary fold	Insulin prom inh	Insulin prom inh cell count	PKD1 kinase inh	GALR2 agonist
CC(=O)c1cccc(NC(=O)c2ccc(C(=O)Nc3cccc(C(C)=O)c3)nc2)c1	98	i	0.91	nt	nt	-5	nt
FC(F)(F)c1cccc(OCc2noc(-c3ccsc3)n2)c1	93	i	0.96	nt	nt	nt	nt
C[C@H]1CC[C@H]2C(=O)N[C@H](Cc3ccccc3)C(=O)N2[C@@H]1c1ccccc1	102	i	0.76	29	79	-13	-3.0
CCCCn1c(=O)[nH]c(=O)c2c1nc(-c1cc3c(cc1Br)OCO3)n2C	115	i	0.97	25	77	2	nt
CCOC(=O)c1cccc(NC(=O)/C=C/c2ccc([N+](=O)[O-])cc2)c1	112	i	0.88	-15	102	-15	-1.1
COc1cccc(/C=N/Nc2ncccc2[N+](=O)[O-])c1OC	84	i	0.87	nt	nt	nt	nt
CCOC(=O)CC1C(=O)NCCN1Cc1cccs1 (configuration not stated)	100	i	0.9	nt	nt	-5	nt
C/C(=N\NC(=O)C(C)n1nc(C)c([N+](=O)[O-])c1C)c1ccccc1O (configuration not stated)	117	i	1	56	125	8	-1.7
O=C(Oc1nsnc1N1CCOCC1)N1CCOCC1	98	i	0.96	36	78	-2	-1.4
O=C(c1ccc(F)cc1)N1CCN(c2cc(=O)[nH]nc2-c2ccccc2)CC1	98	i	0.95	50	119	-2	0.3
CC(=O)c1cc(CN2CCN(CC=C(C)C)C(CCO)C2)cs1 (configuration not stated)	106	i	0.96	nt	nt	9	nt
CN(Cc1ccccc1)S(=O)(=O)c1ccc(S(=O)(=O)N2CCN(CCC#N)CC2)cc1	nt	nt	nt	nt	nt	-14	-2.1
O=C(c1cccn(Cc2ccc(C(F)(F)F)cc2)c1=O)N1CCOCC1	96	i	0.99	-59	77	-1	nt
COc1ccc2[nH]c(=O)c(CN(C)C(=O)C3CCCCC3)cc2c1	104	i	0.96	nt	nt	0	-1.6
Cc1c(F)cccc1NC(=O)CSCC(=O)Nc1ccccc1	113	i	0.9	nt	nt	5	-1.2
Cc1ccsc1CN1CCN(c2ccccn2)CC1	104	i	0.85	nt	nt	-13	-0.3
CC(C)N1C(=O)S/C(=C/c2ccc(Sc3nc4ccccc4[nH]3)o2)C1=O	103	i	1.1	-38	103	-7	0.1
CCCc1nc2ccccc2c(NC(=O)CN(CC)CC)c1CC	100	i	1.1	nt	nt	5	nt
CC(Cl)C(=O)c1c(N)n(C)c(=O)n(C)c1=O (configuration not stated)	102	i	1.1	5	103	-6	-1.6
CC(C)c1ccc(NS(=O)(=O)c2ccc3[nH]cc(C(=O)N4CCC(C(N)=O)CC4)c(=O)c3c2)cc1	102	i	0.83	nt	nt	-9	-0.4
CC(=O)NC1(C(=O)O)CCCC1	100	i	0.94	nt	nt	nt	nt
O=C(Nc1ccc(Cl)cc1)[C@@H]1[C@@H]2C(=O)N(c3ccc(Cl)cc3Cl)C(=O)[C@@H]2[C@H]2C=CC=NN21	102	i	1.2	-24	80	4	-0.1
COc1cccc(C2=NOC(C(=O)Nc3c(C)n(C)n(-c4ccccc4)c3=O)C2)c1 (configuration not stated)	101	i	1.1	nt	nt	nt	nt
Cc1ccc(NC(=O)c2cncc(Br)c2)c(O)c1	99	i	1	nt	nt	1	nt
O=C1c2ccc(-c3ccc4c(c3)C(=O)N(CCCO)C4=O)cc2C(=O)N1CCCO	96	i	0.86	nt	nt	nt	nt
Cc1noc(C)c1COC(=O)CCCc1c[nH]c2ccccc12	90	nt	nt	4	83	-3	-1.6
Oc1ccc(C=Nc2ccccc2-c2nc3ccccc3[nH]2)cc1	87	i	1	nt	nt	-7	0.2
CN(C)c1ccc(CN(C(=O)/C=C/c2ccco2)C2CCS(=O)(=O)C2)cc1 (configuration not stated)	101	i	0.86	nt	nt	nt	nt
O=C(c1ccccc1)N1CCN(C2CCCCC2)CC1	101	i	1	-132	106	-3	-3.0
CCCS(=O)(=O)Nc1c(C(=O)O)[nH]c2ccc(OC)cc12	100	i	0.92	nt	nt	nt	nt
S=C(Nc1ccccc1)N1CCN(C(=S)Nc2ccccc2)CC1	108	i	0.99	nt	nt	-6	nt
Cc1ccc(C)c2[nH]c(=O)c(CCNC(=O)CC(C)(C)C)cc12	102	i	0.91	nt	nt	-9	-1.7
Cc1cc(C)nc(N2CCC(C(=O)NCCc3ccccc3)CC2)n1	112	i	0.7	-28	141	-1	1.4
Cc1cc(C)c2nc(SCC#N)cc(C)c2c1	50	i	0.89	30	127	-4	-0.6
CCOc1cccc(N2C(=O)CC(NCc3ccc(S(N)(=O)=O)cc3)C2=O)c1 (configuration not stated)	91	i	0.92	-79	122	0	-1.3
Cn1cccc1C(=O)NC(=O)COC(=O)Cc1coc2ccc3ccccc3c12	99	i	1.1	nt	nt	4	-1.1
CN1C(=O)C2(c3ccccc31)c1c(oc3ccccc3c1=O)C(=O)N2CCO (configuration not stated)	78	i	1.2	nt	nt	nt	nt
Cc1onc(C(=O)Nc2sc3c(c2C(N)=O)CCCC3)c1[N+](=O)[O-]	117	i	1	nt	nt	nt	nt
CCOC(=O)c1cc(-c2ccccc2)sc1NC(=O)CC	103	i	0.93	-6	147	3	0.2
Cc1ccc(S(=O)(=O)Oc2ccc(/C=C(/NC(=O)c3ccccc3)C(=O)NCCCC(=O)O)cc2)cc1	90	i	0.98	nt	nt	-6	nt
O=C(CSc1ccc2nnc(-c3ccccn3)n2n1)N1CCN(c2ccccc2)CC1	101	i	1.1	nt	nt	6	-5.5

Rows are unselected. Share with any hit: about 1.3%.
